From PubChem BioAssay
Sfp inh = inhibitors of Bacillus subtilis Sfp phosphopantetheinyl transferase. Biochemical Sfp PPTase activity, qHTS. Potency, µM, without a hit: max response, negative = inhibition, usual class: inhibitors. hit rate 3.5% among 310,000; active = well fitted inhibition curve with a large enough effect; inconclusive = small, poorly fitted or top-dose-only effect, or another doubt; inactive = no such curve, though single readings can be large or run the other way;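 note: the enzyme is Sfp with the accession as filed and its product quenches rhodamine fluorescence; potency is the fitted concentration of half-maximal effect; 0% = enzyme reaction without inhibitor and -100% = no enzyme wells; top concentration of the series not given in the record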
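Fluorescence-quenching assay with 15 nM Sfp, 5 uM rhodamine-CoA and 12.5 uM BHQ-2-labelled ybbR peptide in pH 7.6 Hepes/MgCl2 buffer. Enzyme was pre-incubated with compound for 15 min at room temperature. Rate was taken from the 30-min fluorescence change (525/598 nm).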
TRPV1 potentiator = human TRPV1 potentiation; TRPV1-expressing cells, Fluo-8 calcium influx, capsaicin EC20 potentiation; host cell line not named in the record; control for the full effect not named in the record; potentiation, % at 8.33 µM; hit rate 0.02% among 320,000; AID 540277; active means potentiation above 80%; inconclusive means 30% to 80%; inactive means below 30%; note: 0% is about no effect
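TRPV1-expressing cells were cultured overnight at 35.5C and loaded with Fluo-8 calcium dye for 40 to 90 min at room temperature. After a 10 s baseline, compound was added and calcium influx was read kinetically for 3 min (ex 480/em 520 nm).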
CtBP-E1A blk = CtBP/E1A binding inhibition | AlphaScreen GST-E1A/His-CtBP binding, 1536-well; active compounds read low; control for the full effect not named in the record | activity change, % (concentration not given with the values) | hit rate 0.49% among 340,000; in the data active means activity change below about -65%; inconclusive means about -30% to -65%; inactive means above about -30%; note: % is set by controls: 0 for no effect and ±100 for the full control effect
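GST-E1A and His-tagged CtBP (125 nM each as 5X stock) were preincubated with pin-transferred compound for 2 h at 37 °C in the dark, then glutathione donor and nickel acceptor beads were added for 1 h before AlphaScreen reading.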
D2 PAM = human D2 receptor positive allosteric modulation; P14416; DiscoveRx D2 beta-arrestin cells, luminescence, 90 min; 100% = 57 uM dopamine signal; potentiation, % (concentration not given with the values); hit rate 0.23% among 360,000; active = potentiation of 50% or more; inconclusive = 30% to 50%; inactive = 30% or less;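 note: compound concentration not given in the record; tested on top of an EC20 dose of dopamine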
Target sequence (P14416 whole entry, looked up): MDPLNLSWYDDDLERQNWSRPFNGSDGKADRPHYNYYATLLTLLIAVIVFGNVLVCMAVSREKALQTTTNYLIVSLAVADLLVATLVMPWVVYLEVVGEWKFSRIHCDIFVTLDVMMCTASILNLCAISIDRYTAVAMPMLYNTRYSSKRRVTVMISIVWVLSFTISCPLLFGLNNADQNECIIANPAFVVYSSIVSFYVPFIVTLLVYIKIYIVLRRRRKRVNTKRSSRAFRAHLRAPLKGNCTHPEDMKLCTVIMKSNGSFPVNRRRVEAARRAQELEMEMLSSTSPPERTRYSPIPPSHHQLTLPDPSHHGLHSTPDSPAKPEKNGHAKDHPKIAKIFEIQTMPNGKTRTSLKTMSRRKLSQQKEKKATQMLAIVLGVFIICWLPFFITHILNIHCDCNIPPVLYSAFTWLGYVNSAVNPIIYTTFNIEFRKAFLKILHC
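PathHunter D2 cells, attached overnight at 37 deg C, received compound in DMSO plus dopamine at EC20 (50 nM final) for 90 min at 37 deg C. Beta-arrestin recruitment was read as luminescence after 1 h with detection reagent at ambient temperature.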
Six1-Eya2 inh = Six1/Eya2 interaction inhibition. AID 651725. hit rate 0.56% among 360,000. AlphaScreen GST-Six1/His-Eya2 binding, biochemical; active compounds read low; control for the full effect not named in the record. Q15475+O00167. activity change, % (concentration not given with the values); in the data active = activity change below about -65%; inconclusive = about -30% to -65%; inactive = above about -30%; note: % is set by controls: 0 for no effect and ±100 for the full control effect
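Six1/Eya2 binding was read as AlphaScreen signal after compounds were pinned into GST-Six1 plus His-tagged Eya2 (5X stock 250/500 nM) in pH 8.0 Tris/NaCl/TCEP buffer, beads added, then incubated 1 h, 37 C, dark.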
PINK1 modulator = changes PINK1 expression | AID 624263 | Potency, µM (titrated, usually from 76.6 µM), without a hit: at the highest dose activation (PINK1 increase), usual class: activators | hit rate 0.2% among 410,000 | PINK1 immunofluorescence, high-content cytometry, 24 h; active = well fitted activation curve with a large enough effect; inconclusive = small, poorly fitted or top-dose-only effect; inactive = flat fitted curve, though single readings scatter; cell line not stated here;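 note: potency is the fitted concentration of half-maximal effect; % of control where 0% means no effect; nearly all actives have a fitted effect of over 65% in size; a mitochondrial uncoupler was the plate control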
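Measures PINK1 amount and localization on or inside mitochondria by immunofluorescence. Stable cells get compounds at 5 concentrations for 24 hours before fixation and staining; CCCP controls included.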
D2 agonist = human D2 receptor agonism in beta-arrestin assay. P14416. activation, % (no concentration beside the values). DiscoveRx PathHunter D2 beta-arrestin, luminescence, 90 min; 100% = 57 uM dopamine signal. hit rate 0.084% among 360,000; in the data active = activation above about 40%; inconclusive = about 15% to 40%; inactive = below about 15%; note: compound concentration not given in the record; the text of the record calls up to 30% inactive
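Agonist mode: compounds alone added to overnight-plated D2 PathHunter cells for 90 min at 37 C, with 57 uM final dopamine (EC100) defining full response. Beta-arrestin recruitment detected by chemiluminescent reagent, read after 1 h at ambient temperature.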
An asterisk follows results filed as active; u = inconclusive; x = not tested or not shown; [ ] = dose if it differs, or a comment.

Key to letters – A = Sfp inh; B = TRPV1 potentiator; C = CtBP-E1A blk; D = D2 PAM; E = Six1-Eya2 inh; F = PINK1 modulator; G = D2 agonist
CC(=O)c1ccc(S(=O)(=O)Nc2cccc(-c3ccc(N4CCOCC4)nn3)c2)cc1
  A: x | B: 22 | C: -18 | D: 7 | E: -21 | F: 0.3% | G: 2.1

CN1CCN(CCc2cn3ncc(C#N)c3nc2-c2ccc(F)cc2)CC1
  A: 1% | B: 1 | C: -8 | D: -7 | E: 5 | F: 3.0% | G: -5.6

CC1CCN(S(=O)(=O)c2nnc(NC(=O)c3cccc([N+](=O)[O-])c3)s2)CC1
  A: 17% | B: 9 | C: 2 | D: -9 | E: -6 | F: u | G: -6.5

CCOc1c2ccc(C(=O)NCCCCc3ccccc3)cc2nn1CC
  A: 2% | B: 5 | C: -3 | D: -52 | E: 1 | F: 0.1% | G: 0.9

COc1cc(SC)ccc1C(=O)OCC(=O)NCCC1=CCCCC1
  A: x | B: u | C: -26 | D: -5 | E: 4 | F: -0.6% | G: -4.4

CCCOc1cccc(C(=O)Nc2nnn(CCC)n2)c1
  A: 8% | B: x | C: 4 | D: -22 | E: 20 | F: -0.1% | G: -2.4

CCCCCCN1C[C@@H](O)[C@H](n2cc(-c3ccc(F)cc3)nn2)C[C@@H]1c1ccc(OC)cc1
  A: x | B: x | C: 6 | D: 5 | E: 1 | F: -0.8% | G: -4.1

COc1ccccc1CNC(=O)C1CCC(=O)N1C(C)C (stereo not given)
  A: -8% | B: -1 | C: 10 | D: 2 | E: -1 | F: -1.2% | G: 0.3

CCN(CC)C(=O)[C@H]1C[C@H](CC(=O)NCCCn2ccnc2)C(=O)N2CCc3c([nH]c4ccc(Cl)cc34)[C@]12C
  A: x | B: x | C: -4 | D: x | E: -2 | F: 0.3% | G: 0.1

COc1ccc(OC)c(C2SCCN2S(C)(=O)=O)c1 (stereo not given)
  A: 24% | B: -4 | C: 3 | D: 2 | E: 0 | F: 3.1% | G: -3.3

COc1cc(C2=Nc3c(c(C)nn3-c3ccccc3)P(=O)(N3CCOCC3)O2)cc(OC)c1OC (stereo not given)
  A: 13% | B: 6 | C: -4 | D: 5 | E: 6 | F: -1.9% | G: -4.0

COc1ccc(S(=O)(=O)N(C)CC(=O)NCCCN2CCOCC2)cc1Cl
  A: 8% | B: 2 | C: 0 | D: -6 | E: -8 | F: 4.6% | G: -1.7

CCNc1ccc(C(=O)OC(C(=O)NC(N)=O)C(C)C)cc1[N+](=O)[O-] (stereo not given)
  A: -2% | B: -9 | C: 0 | D: -6 | E: -2 | F: -0.3% | G: -2.6

Cc1nc(NC(=O)/C=C/c2ccccc2)sc1C(=O)NCCO
  A: 29% | B: -7 | C: 0 | D: -1 | E: 3 | F: 0.3% | G: -1.0

CC(=O)NC(CCS(C)(=O)=O)C(=O)Nc1cccc(C)c1 (stereo not given)
  A: 12% | B: -2 | C: 5 | D: -8 | E: 4 | F: 1.0% | G: -5.2

O=[N+]([O-])c1cccc(C=NN=Cc2ccccc2O)c1
  A: x | B: x | C: 0 | D: -9 | E: -2 | F: u | G: 1.5

COc1cccc(NC(=O)Nc2ccc(Br)cn2)c1
  A: 6% | B: -9 | C: -1 | D: -8 | E: 1 | F: 13% | G: -2.6

CCn1c(SCC(=O)N2CCCCC2C)nnc1-c1ccc(S(=O)(=O)N2CCN(C)CC2)cc1 (stereo not given)
  A: 12% | B: -2 | C: -8 | D: 1 | E: -1 | F: -2.7% | G: -1.9

O=C(CCN1C(=O)S/C(=C\c2ccccc2)C1=O)NCCCn1ccnc1
  A: 14% | B: 0 | C: 2 | D: -3 | E: -1 | F: 1.0% | G: 2.0

O=C(NCc1ccc(F)cc1)C(c1ccccc1)N(C(=O)c1csnn1)c1ccccc1 (stereo not given)
  A: 9% | B: -14 | C: 14 | D: 4 | E: -2 | F: 1.7% | G: -2.4

Nothing new here: an excerpt of the list.
Key to letters – A = Sfp inh; B = TRPV1 potentiator; C = CtBP-E1A blk; D = D2 PAM; E = Six1-Eya2 inh; F = PINK1 modulator; G = D2 agonist
CCCCCCN1C[C@@H](O)[C@H](n2cc(-c3ccc(F)cc3)nn2)C[C@@H]1c1ccc(OC)cc1
  A: x | B: x | C: 6 | D: 5 | E: 1 | F: -0.8% | G: -4.1

COc1ccccc1CNC(=O)C1CCC(=O)N1C(C)C (stereo not given)
  A: -8% | B: -1 | C: 10 | D: 2 | E: -1 | F: -1.2% | G: 0.3

CCN(CC)C(=O)[C@H]1C[C@H](CC(=O)NCCCn2ccnc2)C(=O)N2CCc3c([nH]c4ccc(Cl)cc34)[C@]12C
  A: x | B: x | C: -4 | D: x | E: -2 | F: 0.3% | G: 0.1

COc1ccc(OC)c(C2SCCN2S(C)(=O)=O)c1 (stereo not given)
  A: 24% | B: -4 | C: 3 | D: 2 | E: 0 | F: 3.1% | G: -3.3

(cont.)
Key to letters – A = Sfp inh; B = TRPV1 potentiator; C = CtBP-E1A blk; D = D2 PAM; E = Six1-Eya2 inh; F = PINK1 modulator; G = D2 agonist
COc1ccc(CC(=O)Nc2ccc3c(c2)OCO3)cc1S(=O)(=O)N1CCOCC1
  A: 7% | B: -1 | C: 1 | D: -3 | E: 1 | F: -1.5% | G: -1.2

O=C(N/N=C/c1cc(Br)c(Br)s1)c1ccncc1
  A: -7% | B: 8 | C: -13 | D: -9 | E: u | F: 0.5% | G: -3.7

Cc1cc(NC(=O)CSc2nc(-c3cccs3)cc(C(F)(F)F)n2)no1
  A: 15% | B: -1 | C: 3 | D: -8 | E: -1 | F: 4.5%[38.3 µM] | G: 2.0

C/C(=N\Nc1ccc(F)cc1F)c1ccccc1O
  A: -1% | B: 3 | C: 8 | D: 5 | E: 3 | F: 8.3% | G: 4.7

CCOC(=O)c1c(C)c(C(=O)N2CCc3ccccc3C2)c(C)n1CC
  A: 2% | B: -15 | C: -24 | D: -11 | E: -12 | F: u | G: 1.7

N#CCCN1CCN(Cc2cc(-c3ccccc3)ccc2O)CC1
  A: 2% | B: 5 | C: -9 | D: -10 | E: -12 | F: -0.7% | G: -1.2

C[C@@H](C(=O)NCc1ccco1)N1C(=O)N2CCc3c([nH]c4ccccc34)[C@@]2(C)C1=O
  A: 13% | B: 3 | C: -4 | D: -39 | E: -15 | F: 0.6% | G: 3.6

O=C(CS(=O)(=O)c1ccccc1)N1CCCCCC1
  A: 14% | B: 1 | C: -1 | D: -20 | E: -4 | F: -0.2% | G: -3.2

CC(C)(C)OC(=O)NC(CCCCNC=O)C(=O)O (stereo not given)
  A: 2% | B: 7 | C: 8 | D: 10 | E: -1 | F: -1.5% | G: 0.4

CC1CC(C)CN(c2oc(-c3ccccc3Cl)nc2C#N)C1 (stereo not given)
  A: -1% | B: -5 | C: -10 | D: 2 | E: -9 | F: 12%[38.3 µM] | G: -1.1

Cc1ccccc1OCC(=O)O/N=C(\N)Cc1cccs1
  A: -10% | B: -10 | C: 36 | D: 5 | E: 27 | F: x | G: -1.4

Cc1ccnc(NCc2ccccc2O)c1
  A: 18% | B: -11 | C: -10 | D: -4 | E: 9 | F: 1.3% | G: -0.8

COc1cccc2c1OC[C@@H](CO)[C@H]2N(C)C(=O)Nc1ccccc1
  A: 8% | B: x | C: 4 | D: 3 | E: 4 | F: 5.5%[38.3 µM] | G: -2.2

COc1ccc(C2=NOC(Cn3nc(C(=O)NCc4ccc(C)cc4)cc3-c3ccccc3)C2)cc1 (stereo not given)
  A: x | B: 9 | C: -3 | D: -2 | E: -13 | F: -1.8% | G: 0.6

Cc1ccc(-c2cc(C(=O)N/N=C/c3c(C)nn(-c4ccccc4)c3C)n[nH]2)s1
  A: -4% | B: -25 | C: x | D: -12 | E: -8 | F: -1.5% | G: 2.1

CCc1ccc(C(C(=O)NCCOC)N(C(=O)Cn2nnc3ccccc32)c2cccnc2)cc1 (stereo not given)
  A: 19% | B: 25 | C: -4 | D: -2 | E: 2 | F: -2.0% | G: -0.4

CN(Cc1ccccc1)c1nc(-c2cccc([N+](=O)[O-])c2)nc2ccccc12
  A: 6% | B: 1 | C: 2 | D: -5 | E: 1 | F: 0.8% | G: -19

CSc1ncccc1C(=O)NC1CCCCCC1
  A: 8% | B: 0 | C: x | D: -4 | E: 3 | F: 0.8% | G: -2.7

COc1ccc(-n2nnnc2SCC(=O)Nc2cccc(O)c2)cc1
  A: 14% | B: -5 | C: 0 | D: -22 | E: -6 | F: -0.5% | G: 6.5

Cc1nc(N2CCN(c3ccccn3)CC2)c2c(C)c(C(=O)N3CCN(c4ccc(F)cc4)CC3)sc2n1
  A: -2% | B: 7 | C: -17 | D: 2 | E: -23 | F: 0.6% | G: 14

CC1CCN(C(=O)Cn2cc(SCC(=O)NCC3CCCO3)c3ccccc32)CC1 (stereo not given)
  A: 7% | B: -2 | C: 7 | D: 6 | E: -3 | F: 2.5% | G: -3.3

CCOC(=O)CN(C)Cc1cn(C)nc1-c1ccc(Oc2ccccc2)cc1
  A: 4% | B: 2 | C: 0 | D: -3 | E: 5 | F: -0.8% | G: 6.5

O=c1[nH]c(-c2ccccc2)nc2sc(-c3ccccc3)cc12
  A: -3% | B: -3 | C: -3 | D: -1 | E: 8 | F: 4.7% | G: -2.9

COc1ccc(Cc2nn3c(-c4cc(OC)c(OC)c(OC)c4)nnc3s2)cc1
  A: -58% | B: -5 | C: -13 | D: -5 | E: -18 | F: 0.4% | G: -1.6

O=C(NCCS(=O)(=O)c1ccc(Br)cc1)c1ccc(F)cc1
  A: 1% | B: -7 | C: 1 | D: -9 | E: -1 | F: 0.3% | G: -5.3

COc1ccc(C(=O)Nc2ccc(S(=O)(=O)N3CCCC3)cc2)cc1[N+](=O)[O-]
  A: -12% | B: -6 | C: -2 | D: 8 | E: -4 | F: 4.4% | G: -2.9

O=C(COC(=O)/C=C/c1cccc(F)c1)NC(=O)NCc1ccccc1
  A: x | B: x | C: x | D: -17 | E: -21 | F: 3.0% | G: u

CCNC(=O)C1(C)CCCN1C(=O)c1ccc2c(c1)OCO2 (stereo not given)
  A: x | B: x | C: 1 | D: 1 | E: 1 | F: -0.3% | G: -5.1

O=C(c1cccnc1)N1CCN(C/C=C/c2ccccc2)CC1
  A: 19% | B: -8 | C: 8 | D: -5 | E: 3 | F: 0.7% | G: 5.1

CCCCNC(=O)c1onc(CSc2cccc(OC)c2)c1C(=O)NCCCC
  A: x | B: x | C: 30 | D: -4 | E: 14 | F: 8.3% | G: -1.0

COC(=O)c1[nH]c2cc(OC)c(OC)cc2c1NC(=O)c1cccc(OC)c1
  A: -9% | B: -4 | C: -11 | D: -1 | E: -3 | F: 0.2% | G: 2.7

CCOC(=O)C1CCCN(c2c(NCCc3cccc(C)c3)c(=O)c2=O)C1 (stereo not given)
  A: 25% | B: 6 | C: x | D: -13 | E: 9 | F: -0.3% | G: 0.3
